High-throughput results (PubChem BioAssay)
BJeLR viability: BJeLR cell viability loss; AID 1554; BJeLR (HRASV12) viability, CellTiter-Glo ATP luminescence, 48 h; reference of the scale not given here; actives 0.17% (n = 300,000); inhibition, % (no concentration beside the values);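 active = replicate mean above 50%; inconclusive = above 50% but judged a plate artefact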;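 note: 50 nL library stock added to about 25 µL; numbers are from one replicate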
ugtP null kill: growth inhibition of S. aureus ugtP deletion strain; S. aureus RN4220 ugtP deletion, OD600 growth, 16 h; some inactives read as strong as hits; growth inhibition, % (concentration not given with the values); actives 0.54% (n = 330,000);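 active = z-score under -3 and OD600 up to 0.15 on both plates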;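 note: plate controls were untreated wells for no effect and antibiotic for full effect; wells of about 80 µL received 100 nL stock; the first replicate is given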
PrP UTR inh: suppresses PrP 5' UTR mRNA reporter expression. cell-based PrP 5' UTR mRNA reporter, plate reader. inhibition, % (no concentration beside the values). actives 0.35% (n = 340,000). AID 488862;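 active = every replicate at 50% or more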;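 note: 0 = median of the neutral control wells; tested in H4 reporter cells; numbers are from one replicate; inactives centre near -14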
RN4220 kill: kills Staphylococcus aureus RN4220; S. aureus RN4220 growth, OD600, 16 h; inhibition, % (concentration not given with the values); actives 0.33% (n = 330,000);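 active = z-score of -3 or lower and OD600 up to 0.18 on both plates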;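 note: plate controls were untreated cells for no effect and reference antibiotic for full effect; stock transfer was 100 nL into about 80 µL; one replicate is shown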
Mtb hypoxia inh: inhibitors of hypoxia-regulated fluorescent reporter in Mycobacterium tuberculosis; M. tuberculosis hypoxia-regulated fluorescent reporter, fluorescence; AID 1159583; actives 0.1% (n = 300,000); fluorescence inhibition, % (test concentration not listed);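 active = 35 to 45% if threefold the growth effect, above 45% if 1.5-fold the growth effect; inactive = the rest, general growth blockers included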;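 note: wells of about 50 µL received 100 nL stock; 0% = vehicle wells and 100% = reference inhibitor wells; whole bacteria with a GFP reporter of the hypoxia response; strong numbers were not always called active; many hits fall short of the cut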
Bead autofluor: counter-screen for toxin protease inhibitors: compound fluorescence | actives 3.1% (n = 360,000) | AID 624483 | fluorescence intensity (concentration not given with the values) | compound autofluorescence counterscreen, microsphere flow cytometry; active compounds read high;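 active = at least 3 SD above the mean of all compounds, about 16000 in these data; inconclusive = too few beads counted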;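 note: 100 nL of 1 mM stock went into each well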
Mtb hypoxia inh growth: further read-out of Mtb hypoxia inh, marked with its call; growth inhibition, %; measured here: M. tuberculosis growth (absorbance);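 0% = vehicle and 100% = reference antibiotic; read after six days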
An asterisk follows results filed as active; ? = inconclusive; nt = not tested or not shown.

SMILES	BJeLR viability	ugtP null kill	PrP UTR inh	RN4220 kill	Mtb hypoxia inh	Mtb hypoxia inh growth	Bead autofluor
CCOCCCNC(=O)c1ccc2c(=O)n(CCCOCC)c(=S)[nH]c2c1	-4.3	24.4	-4.2	5.7	10.2	0.7	4089
O=C(Nc1cccnc1)c1scc2c1OCCO2	-8.0	5.4	-12.0	-1.3	1.7	0.0	3056
Cc1ccc(C(=O)NCC(=O)O)s1	1.6	-0.6	-38.3	5.3	0.4	-3.0	3465
NC(=O)C1CCN(C(=O)C2CCC(=O)N(Cc3ccc(Cl)cc3)C2)CC1 (stereo not drawn)	7.3	5.7	-24.8	2.9	12.0	10.2	6415
CCC(=O)Nc1cccc(NC(=S)NC(=O)c2ccc(Cl)cc2)c1	-6.3	81.9	-85.0	4.8	8.1	8.8	7760
Cc1cccc(C(=O)NC(=S)Nc2ccc(N3CCOCC3)cc2)c1	-13.5	86.9*	-20.7	2.0	-4.3	5.3	1990
COc1ccc(NC(=O)c2cnc3sccn3c2=O)cc1	-0.7	1.3	-81.7	0.8	2.3	1.1	3172
O=C(Nc1cc(S(=O)(=O)N2CCOCC2)ccc1N1CCOCC1)c1ccc([N+](=O)[O-])s1	nt	-7.0	-5.7	8.5	-9.6	16.5	4153
COc1ccc(-c2noc(CCC(=O)N3CCC(c4cc(C)ccc4C)CC3)n2)cc1	nt	8.2	-13.1	4.1	0.6	2.0	4044
Cc1cc(C(=O)NN)c2cc(Br)ccc2n1	-6.1	0.4	-6.5	4.9	12.3	6.5	4386
Clc1ccc(Cn2ncc3c(NCc4ccccc4)ncnc32)c(Cl)c1	1.1	5.9	nt	-12.5	11.7	2.7	nt
CC(C)[C@H](NC(=O)[C@@H]1Cc2ccccc2CN1C(=O)OC(C)(C)C)C(=O)NC1CCCC1	-2.5	-4.2	-10.7	-4.4	-6.4	3.4	5396
COCCOC(=O)c1c(NC(=O)CNc2ccc(C)c(F)c2)sc(C(N)=O)c1C	1.7	7.9	-11.6	7.1	-9.9	2.0	3866
Cc1ccc(CSCC(=O)NCCCN2CCOCC2)cc1	-6.7	11.2	-5.1	6.8	-6.8	-4.2	2387
CCOC(=O)c1sc(NC(=O)c2cccs2)nc1C	nt	2.0	-69.9	9.1	14.0	9.3	11161
COc1ccc(C=NNc2ncnc(Cl)c2N)cc1OC	nt	1.9	nt	2.0	0.2	-3.1	nt
CC(=O)N/C(=C\c1ccc(F)cc1)C(=O)NC(C(=O)O)C(C)C (stereo not drawn)	3.5	-1.1	-2.8	-2.7	3.3	-3.4	4871
COC1Cc2ccccc2N(C(N)=O)c2ccccc21 (stereo not drawn)	-0.3	-0.8	-28.6	2.1	-5.9	11.4	4698
COc1ccc(CN(C)Cc2c(O)ccc3cc(Br)ccc23)cc1OC	-3.3	-4.3	9.9	2.1	-5.9	-7.3	4573
CCNC(=O)n1cc(-n2cncn2)c(-c2ccccc2)n1	5.6	-6.1	-10.3	12.4	16.6	7.2	2099
CC(c1cccs1)N(Cc1ccco1)C(=O)Nc1ccc(Cl)c(Cl)c1 (stereo not drawn)	-0.2	-8.8	-12.0	-7.8	-1.6	-1.7	17014*
C(=C\c1ccccc1)/C=N/Nc1nc2ccccc2[nH]1	5.3	nt	-135.7	nt	nt	nt	2314
CC(=O)N1N=C(N)SC1c1cccc([N+](=O)[O-])c1 (stereo not drawn)	2.9	1.5	-7.1	3.6	-2.0	-4.4	2227
O=C(OCc1cccnc1)C1=Cc2ccccc2OC1	2.3	10.5	-35.2	8.9	7.2	2.0	5069
CCCC(=O)NNC(=O)CC(=O)Nc1ccccc1C(=O)O	-3.7	-3.8	-8.6	3.4	4.3	0.2	4577
C/C(=N/NC(=O)c1ccoc1C)c1ccc(NC(=O)C2CCCC2)cc1	-2.1	nt	-20.6	nt	nt	nt	2063
O=C(O)c1n[nH]c2c1CCCC2	2.1	3.0	-13.3	15.1	-4.4	11.3	3256
Cc1cccc(C)c1OC1(c2ccccc2)OC(=O)c2ccccc21 (stereo not drawn)	-9.6	59.5	nt	-2.7	11.9	6.4	11345
O=C(O)CN=C(NS(=O)(=O)c1ccc(Cl)cc1)c1ccccc1	0.3	6.8	-8.9	0.0	8.8	1.5	3061
COc1cc(/C=C/C(=O)N2CCN(C(=O)/C=C/c3cc(OC)c(OC)c(OC)c3)CC2)cc(OC)c1OC	-9.2	6.7	-22.8	4.1	11.0	11.1	3519
CC(CNC(=O)C(C)C)NC(=O)C(C)C (stereo not drawn)	4.3	4.7	-7.1	7.2	nt	nt	2404
COCCOC(=O)C1=C(C)NC(=O)NC1/C=C/c1ccccc1 (stereo not drawn)	1.6	-1.5	-9.8	-0.2	7.7	7.3	2489
CC(C)CCN1C(=O)c2ccc(C(=O)NCc3ccco3)cc2C1=O	3.7	1.7	-5.6	0.3	nt	nt	4215
CN(C)CCCOC(=O)c1sc2ccccc2c1Cl	-9.1	2.7	-24.0	1.2	20.3	8.4	4382
COc1ccccc1CNC(=O)Cn1cnnn1	-6.3	6.3	-18.0	1.5	2.8	9.0	3553
CCCc1ccc2oc(C(=O)N3CCN(C4CCS(=O)(=O)C4)CC3)c(C)c2c1 (stereo not drawn)	-3.8	-3.2	-20.0	4.0	3.0	13.3	5836
Clc1ccc(Cn2ncc3c(NCc4ccco4)ncnc32)c(Cl)c1	41.6	-1.3	nt	-15.3	nt	nt	nt
COc1ccccc1OCC(=O)Nc1ncc(C)s1	nt	1.1	-55.3	0.9	7.2	6.5	4129
Cc1ccc(NC(=O)c2ccccc2Cl)c(Cl)c1	-5.6	14.3	-105.5	1.2	11.8	9.3	nt
COc1ccc(/C(C)=N/OCC(=O)N=Nc2c(O)[nH]c3ccccc23)cc1	-8.5	nt	-17.2	nt	nt	nt	2105

2 entries from above, with bars between the fields:
SMILES | BJeLR viability | ugtP null kill | PrP UTR inh | RN4220 kill | Mtb hypoxia inh | Mtb hypoxia inh growth | Bead autofluor
COc1ccc(/C(C)=N/OCC(=O)N=Nc2c(O)[nH]c3ccccc23)cc1 | -8.5 | nt | -17.2 | nt | nt | nt | 2105
CC(C)CCN1C(=O)c2ccc(C(=O)NCc3ccco3)cc2C1=O | 3.7 | 1.7 | -5.6 | 0.3 | nt | nt | 4215

Following part.
SMILES	BJeLR viability	ugtP null kill	PrP UTR inh	RN4220 kill	Mtb hypoxia inh	Mtb hypoxia inh growth	Bead autofluor
COc1ccc(NC(=O)C2=CC(c3ccco3)=NS(=O)(=O)N2C)cc1	-3.0	-4.2	-2.9	1.5	nt	nt	5495
CC1SC(=NN=C2CCC(C(C)(C)C)CC2)NC1=O (stereo not drawn)	nt	9.1	nt	2.2	6.5	8.7	nt
Cc1nnc(N2CCCC(C(=O)NCc3ccc(OC(C)C)cc3)C2)c2nn(-c3ccccc3)c(C)c12 (stereo not drawn)	-14.9	5.9	-7.7	0.1	9.8	1.0	24028*
COc1ccc(CNC(=O)Cc2ccc(OC)c(S(=O)(=O)N3CCOCC3)c2)cc1	-3.1	8.4	-2.8	8.4	nt	nt	4396
CN(C)S(=O)(=O)c1ccc(/C(O)=C2/C(=O)C(=O)N(Cc3cccnc3)C2c2cccs2)cc1 (stereo not drawn)	4.0	5.4	-22.1	2.9	5.5	-2.5	5591
C#CCOCCOCCOCCNc1nc(N2CCN(C(=O)Cn3cc(CC(C)O)nn3)CC2)nc(N2CCN(C(=O)C(C(C)CC)n3cc(CCCN=C(N)N)nn3)CC2)n1 (stereo not drawn)	nt	-3.4	nt	2.7	-4.3	6.7	nt
Cc1cccc(C)c1NC(=O)CN(C)C(=O)c1ccccc1OCc1ccc(F)cc1	-0.1	-4.9	-16.0	5.4	-5.2	-6.9	nt
CCOc1ccc2[nH]c(=S)[nH]c2c1	-2.9	0.2	-20.0	-0.5	nt	nt	4344
CC(C)NC(=O)COC(=O)c1ccc(Cl)c(S(=O)(=O)N2CCCC2)c1	0.5	5.5	-15.1	3.1	17.8	9.7	4665
N#Cc1nc(-c2ccccc2)oc1N1CCCCC1	0.8	-14.3	-17.2	2.0	9.9	7.7	8227
CC(=O)c1cccc(NC(=O)N2CCC(c3nnc(SCC(N)=O)n3C)CC2)c1	-1.7	8.2	-28.4	2.1	nt	nt	4394
CC1(C)C(C(=O)N2CCN(c3ccc(Cl)cc3)CC2)C1(C)C	-4.6	7.1	-23.6	2.8	8.9	3.7	4149
Cc1c(C(=O)Nc2ccccn2)oc2ccccc12	-3.7	0.9	-158.8	2.6	1.8	-4.8	15471
COc1ccccc1CNS(=O)(=O)c1cc(C)ccc1OC	0.1	6.2	-36.5	9.7	nt	nt	2482
Cc1ncc(CO)c(/C=N/Nc2cccc(Cl)n2)c1O	7.3	nt	-8.3	nt	nt	nt	3574
CC(C(=O)NC1=NCCS1)(C(F)(F)F)C(F)(F)F	-3.8	5.1	3.1	11.6	nt	nt	3588
Cc1cccc(C)c1NC(=O)c1sccc1SCC#N	4.9	1.2	nt	5.3	3.1	0.8	10034
CCN1C(=O)C2C(c3ccc(-c4ccc5c(c4)OCO5)cc3)N3CCCC[C@@]3(C(=O)OC)C2C1=O (stereo partly drawn)	nt	-11.0	nt	-1.5	8.6	4.9	nt
COc1ccc(C)cc1-n1c(=O)c2ccccc2c2ccccc2c1=O	-9.9	5.9	-20.0	4.7	25.1	22.1	3771
O=C(Nc1ccc(OC(F)F)c(Cl)c1)c1cccc(OC(F)F)c1	-4.1	-35.1	-23.1	0.5	-0.8	3.6	10203
CC(C)(C)C1CCC(C(=O)NNC(=O)c2ccncc2)CC1 (stereo not drawn)	2.8	4.7	-17.0	3.7	-4.7	-4.9	5694
CC1(C)Cc2c(sc3nc(SCC(=O)NCc4ccco4)n(-c4ccccc4)c(=O)c23)CS1	-3.9	18.8	7.0	3.0	-2.6	2.0	2172
CC(C)CCNC(=O)c1cc(-c2ccco2)nc2ccccc12	7.4	0.8	0.2	3.4	8.1	25.6	6991
CCc1nnc(NC(=O)C2CC(=O)N(C3CCCC3)C2)s1 (stereo not drawn)	-9.0	10.3	-6.8	1.2	-0.5	4.6	5744
Cc1cccc(N2C(=O)C(O)=C(C(=O)c3cccs3)C2c2ccccc2)n1 (stereo not drawn)	-3.0	6.9	-25.2	1.5	-8.8	5.4	6064
COc1cc2ccccc2cc1C(=O)OCC(=O)N1CCOCC1	1.4	2.8	-7.0	6.3	11.5	11.4	2807
CC(OC(=O)c1ccc2ncsc2c1)C(=O)NC1CCCCC1C (stereo not drawn)	0.8	1.3	-5.8	1.1	-0.6	8.8	5761
Cc1ccc(CNC(=S)Nc2ccc(C)c([N+](=O)[O-])c2)cc1	11.9	-8.0	-12.5	-4.0	-5.9	-11.3	1970
CC(C)(Oc1ccc(Cl)cc1)C(=O)Nc1ccc(S(=O)(=O)Nc2ncccn2)cc1	7.3	19.9	-9.0	2.6	-1.5	-16.8	6246
O=C(c1ccc(F)c(F)c1)N1CCCc2ccccc21	-0.4	-1.3	-10.7	1.6	3.8	5.0	3429
CC(C)CNc1nc(N)c([N+](=O)[O-])c(N2CCCCCC2)n1	4.8	-8.3	-3.1	2.2	6.3	3.6	3075
Cn1c(-c2ccccc2Br)n[nH]c1=S	2.6	-8.9	-24.5	-16.4	20.1	-10.3	2901
Cc1nc(NC(=S)NC(=O)c2cncc(Br)c2)ccc1Br	4.0	4.7	-13.7	4.4	-5.6	-4.3	4574
O=c1[nH]c(=O)n(-c2cccc(F)c2)c(O)c1/C=C1\C=Nc2ccccc21	2.6	1.2	-7.1	0.2	14.1	5.6	5243
Cc1ccc(S(=O)(=O)N/N=C\c2cc([N+](=O)[O-])ccc2Cl)cc1	1.7	nt	-59.4	nt	nt	nt	10278
O=[N+]([O-])c1ccc(C2Oc3ccccc3C3CC(c4ccccc4)=NN32)s1 (stereo not drawn)	nt	64.7	nt	29.2	1.8	4.7	nt
O=C(NCc1cccs1)C1CCC(CNS(=O)(=O)c2ccc(Br)s2)CC1 (stereo not drawn)	-5.7	1.6	-28.0	-0.4	nt	nt	2462
CC(=O)c1ccccc1NC(=O)CSc1nnc(Cc2csc(C)n2)o1	3.1	5.8	-8.0	2.2	0.0	-2.5	?
